# Source: PubChem (several laboratories)
# Insulin prom inh – inhibitors of insulin promoter-driven GFP, primary screen, imaging, TRM-6 cells (human fetal islet line), eGFP reporter, cell count. reporter expression induced with tamoxifen. inhibition, % at 2 µM. 0.9% of 130,000 active. AID 1273, 2008;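 active = inhibition above the mean plus 3 SD, with well images judged a real hit on visual review, cut at about 60% in these data, passing the limit was not always enough; inconclusive = inhibition over the cutoff but images rejected on review; inactive = inhibition not above the cutoff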
# PKD1 kinase inh – inhibitors of human PKD1 kinase, biochemical, fluorescence polarization. Serine/threonine-protein kinase D1 (Homo sapiens), Q15139. PKD1 kinase fluorescence polarization assay. inhibition, %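 (about 10 µM by stock and volumes)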. 0.056% of 200,000 active;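 active = inhibition of 50% or more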;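 note: controls were vehicle for no effect and a reference inhibitor for full effect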
# RGS16-Gao HTS – modulators of RGS16 binding to Galphao, primary screen, biochemical, human proteins, multiplexed bead flow cytometry. bead-based flow cytometry RGS16-Galphao binding, fluorescence; actives lie on both sides. binding response (% of control), % at 10 µM. 0.38% of 220,000 active. AID 1441, 2008;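 active = below 25% or above 175%, edge rows of some plates excepted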;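 note: Galphao activated by GDP with aluminum fluoride before binding; 100% = wells without compound and 0% = beads without RGS; some results beyond the cut were filed as inactive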
# Target sequence (O15492 whole entry, looked up): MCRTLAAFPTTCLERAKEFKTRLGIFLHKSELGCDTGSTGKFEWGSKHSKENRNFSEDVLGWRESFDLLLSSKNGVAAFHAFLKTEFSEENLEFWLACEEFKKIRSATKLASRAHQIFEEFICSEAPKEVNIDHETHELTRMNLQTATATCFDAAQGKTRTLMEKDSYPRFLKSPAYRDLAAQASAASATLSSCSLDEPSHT
# Target sequence (P09471 whole entry, looked up): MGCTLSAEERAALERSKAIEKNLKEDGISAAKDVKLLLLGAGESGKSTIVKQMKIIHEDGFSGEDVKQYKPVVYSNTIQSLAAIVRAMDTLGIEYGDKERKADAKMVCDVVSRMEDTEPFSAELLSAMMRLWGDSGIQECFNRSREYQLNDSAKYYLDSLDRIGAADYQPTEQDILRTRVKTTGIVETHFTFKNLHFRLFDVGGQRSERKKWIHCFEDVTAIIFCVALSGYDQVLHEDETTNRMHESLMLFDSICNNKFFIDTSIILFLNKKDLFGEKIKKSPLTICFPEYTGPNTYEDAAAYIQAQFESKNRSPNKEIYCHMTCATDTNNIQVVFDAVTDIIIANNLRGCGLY
# HSV replic up – enhancers of HSV replication in host cells, fold increase, host cell viability; AID 1956, 2009; maximum fold increase; 0.005% of 220,000 active; HSV replication augmentation in cells;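 active = peak rise of 1.5-fold or more in the series; inconclusive = self-fluorescent or not available for retest; tested in PC3 cells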;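 note: first round at 10 µM; read as green reporter fluorescence; hits show the peak of a series up to 25 µM; 1 = signal of infected wells without compound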
# GALR2 ag – GALR2 receptor agonists, primary screen, cell-based | Galanin receptor type 2 (Homo sapiens), O43603 | GALR2-expressing cells, agonist activation read-out | activation, %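 (tested at 5 µM)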 | 0.48% of 140,000 active | AID 803, 2007;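 active = above mean plus 3 SD of all compounds, about 5% in these data, not always enough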;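 note: 0% = vehicle buffer wells and 100% = reference agonist at full effect; tested in CHO reporter cells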
# Target sequence (O43603 whole entry, looked up): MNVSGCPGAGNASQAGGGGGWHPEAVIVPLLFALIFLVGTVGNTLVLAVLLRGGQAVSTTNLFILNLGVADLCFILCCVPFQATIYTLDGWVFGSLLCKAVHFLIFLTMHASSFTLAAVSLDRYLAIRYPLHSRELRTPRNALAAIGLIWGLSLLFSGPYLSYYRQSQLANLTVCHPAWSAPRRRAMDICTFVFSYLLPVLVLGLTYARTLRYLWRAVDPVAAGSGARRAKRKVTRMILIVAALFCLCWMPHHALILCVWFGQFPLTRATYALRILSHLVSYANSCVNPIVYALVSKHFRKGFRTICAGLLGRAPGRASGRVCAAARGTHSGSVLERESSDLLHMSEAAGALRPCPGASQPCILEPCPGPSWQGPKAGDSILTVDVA
# Insulin prom inh cell count – further read-out of Insulin prom inh, marked with its call; normalized cell count, %; measured here: cell count, toxicity; reference of the scale not given here;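 cells exposed to compound for 48 h; stained nuclei by imaging scaled within each plate; lower means fewer cells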
# HSV replic up primary fold – recorded beside HSV replic up, whose call it bears; fold increase; compound at 10 µM; measured here: primary screen fold increase 10 uM; tested in PC3 cells;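 GFP signal in the first replicate; 1 = infected wells without compound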
# The depositor's hits bear a star; i = inactive; u = inconclusive; x = not tested or not shown.
SMILES,Insulin prom inh,Insulin prom inh cell count,PKD1 kinase inh,RGS16-Gao HTS,HSV replic up,HSV replic up primary fold,GALR2 ag
CCOC(=O)C1CCN(c2cc(C)nc3ccc(OC)cc23)CC1,18,104,-10,110,i,0.93,x
CC(C)Cc1nnc(NS(=O)(=O)Cc2ccccc2)s1,-3,55,2,102,i,1,-1.7
COc1cc2c(C(=O)N3CCN(c4ccccc4F)CC3)cn(C)c(=O)c2cc1OC,x,x,-2,104,i,0.92,x
COc1ccc(CNC(=O)CSc2ccc(Br)cc2)cc1OC,x,x,-9,68,i,1.1,-0.3
O=C(NC1CCCCCC1)c1nc2ncccn2n1,-7,92,-5,101,x,x,1.1
CC1=C(C(=O)Nc2ccccc2)C(c2ccc3c(c2)OCO3)C2=C(CCCC2=O)N1 (stereo not given),-179,53,0,103,i,0.93,-0.5
CCOC(=O)c1ccc(NC(=O)CN2C(=O)CCC2=O)cc1,-3,122,5,124,i,0.94,-2.7
Cc1nn(Cc2ccc(Cl)cc2)c2sc(C(=O)O)cc12,-5,76,-1,99,i,0.94,x
CCN(CC)S(=O)(=O)c1ccc(C(=O)Oc2ccc3c(c2)OCO3)cc1,21,72,2,105,i,0.82,-0.3
CCOC(=O)CN(C(=O)CSc1nnc(CNc2ccc(C)cc2C)o1)c1ccccc1,x,x,-6,95,i,0.74,-0.2
COc1ccc(N(Cc2cc3ccccc3[nH]c2=O)S(C)(=O)=O)cc1,0,66,-3,60,i,0.89,-3.2
C/C(=N/NC(=O)Cc1c(C)[nH][nH]c1=O)c1ccc(O)cc1,-3,112,5,99,i,0.81,-3.5
CC(=O)Nc1ccc(-c2nnc(SCC(=O)NCc3ccco3)n2C)cc1,10,72,-4,99,i,1.2,-0.4
CC(C)NC(=O)c1cc(-c2ccco2)on1,0,153,16,98,i,1.2,-3.4
Cc1ccc(C)c(N2CCN(S(=O)(=O)c3ccc4c(c3)OCCO4)CC2)c1,28,76,-1,102,i,0.92,-3.6

# Shown with two lines to a compound: five of the compounds above
# Values run as follows: Insulin prom inh, Insulin prom inh cell count, PKD1 kinase inh, RGS16-Gao HTS, HSV replic up, HSV replic up primary fold, GALR2 ag
- O=C(NC1CCCCCC1)c1nc2ncccn2n1
 : -7, 92, -5, 101, x, x, 1.1
- CC1=C(C(=O)Nc2ccccc2)C(c2ccc3c(c2)OCO3)C2=C(CCCC2=O)N1 (stereo not given)
 : -179, 53, 0, 103, i, 0.93, -0.5
- CCOC(=O)c1ccc(NC(=O)CN2C(=O)CCC2=O)cc1
 : -3, 122, 5, 124, i, 0.94, -2.7
- Cc1nn(Cc2ccc(Cl)cc2)c2sc(C(=O)O)cc12
 : -5, 76, -1, 99, i, 0.94, x
- CCN(CC)S(=O)(=O)c1ccc(C(=O)Oc2ccc3c(c2)OCO3)cc1
 : 21, 72, 2, 105, i, 0.82, -0.3

# Remaining list, next part:
SMILES,Insulin prom inh,Insulin prom inh cell count,PKD1 kinase inh,RGS16-Gao HTS,HSV replic up,HSV replic up primary fold,GALR2 ag
O=C(COC(=O)c1oc2ccccc2c1COc1ccccc1)NCCN1C(=O)CSC1=O,x,x,0,104,i,0.95,-0.3
COC(=O)C(C(=O)Nc1ccccc1C)C1CCCC1 (stereo not given),7,71,-5,101,i,0.98,-0.8
CC1CC(C)CN(C(=O)C2CCC(CNc3c(N4CCCCC4)c(=O)c3=O)CC2)C1 (stereo not given),x,x,x,74,i,1.1,x
Cc1ccc(C)n1-c1cccc(NC(=O)c2ccccc2)c1,-8,98,-5,102,x,x,-0.5
CCCCN(C(C)=O)C1CC(=O)N(c2ccc(OCCC)cc2)C1=O (stereo not given),x,x,x,96,i,0.9,x
CCOC(=O)COc1ccc2ccccc2c1/C=C/[N+](=O)[O-],21,64,1,102,i,0.86,2.5
O=C(Nc1ccc(N2CCN(C(=O)c3ccco3)CC2)cc1)c1cccc(F)c1,64,132,-3,94,i,1,-0.9
COc1ccccc1Nc1ncnc2c1oc1ccccc12,33,62,6,109,i,0.92,0.0
CCOC(=O)C(C)n1nc(C)c2sc3ccccc3c2c1=O (stereo not given),x,x,4,107,i,1,-3.3
COc1ccc(C(=O)C[n+]2cccc(Br)c2)cc1,x,x,x,90,i,0.71,x
CCN(C(=O)c1ccnc(C(C)(C)C)c1)c1ccccc1,32,135,0,106,i,1.2,-3.3
CC1CC(C)CN(C(=O)CSc2nnc(-c3ccc(Cl)cc3)o2)C1 (stereo not given),x,x,3,129,i,1.4,-0.5
Cc1ccc2nc(-c3ccncc3)cc(C(=O)Nc3ccc4c(c3)OCCO4)c2c1,x,x,-3,103,i,0.71,x
Cc1ccc(C(=O)N/C(=C\c2cccs2)C(=O)NCc2cccnc2)cc1,10,127,0,107,i,0.88,-0.9
FC(F)(F)c1cc(-c2cccs2)nc2cc(-c3ccccc3)nn12,x,x,1,118,i,0.75,1.7
CC(C)NC(=O)c1ccc(Cl)cc1Cl,x,x,-7,104,i,0.89,x
COCCCNC(=O)Nc1ccc2c(c1)N(C)C(=O)CS2,x,x,6,100,i,0.84,-1.5
O=C(Cn1cnc2ccccc2c1=O)Nc1ccc2c(c1)OCO2,-5,70,6,171,i,1,-0.6
O=C(c1ccc(Cl)cc1)c1cc(-c2ccccn2)c(N2CCOCC2)s1,2,91,-8,103,i,1,2.8
COc1cc(C2c3cc4c(cc3C(OC3OC5COC(c6cccs6)OC5C(O)C3O)C3COC(=O)C23)OCO4)cc(OC)c1O (stereo not given),x,x,x,104,i,0.59,x
CCn1cc([N+](=O)[O-])c(C(=O)N2N=C(c3cccc4ccccc34)CC2c2ccccc2O)n1 (stereo not given),-400,46,-8,56,i,1.1,-0.5
CCCc1ccc(OCc2ccc(C(=O)OC)o2)c(OC)c1,34,60,0,107,i,0.98,1.1
O=C1Nc2ccccc2C1(O)Cc1ccccn1 (stereo not given),x,x,x,95,i,1.1,x
O=C(CSc1nnc2ccccn12)Nc1cccc(-c2nc3ccccc3s2)c1,x,x,-9,99,i,1,5.7*
O=Cc1cnc(N2CCOCC2)nc1,-22,86,-6,129,i,0.98,0.1
CCC(CC)c1nnc(NC(=O)CCCN2C(=O)c3ccccc3C2=O)s1,-21,101,0,111,i,1,-2.0
CC1=C(C(=O)Nc2ccc(C)cc2)C(c2cccs2)NC(=S)N1 (stereo not given),-24,118,-1,49,i,0.97,-0.1
COc1ccc(CCN(Cc2ccccn2)C(=S)Nc2ccc(C)cc2)cc1OC,x,x,-7,94,i,0.86,x
C(=N\Nc1nccc(-c2cccnc2)n1)/c1ccccc1,x,x,x,92,i,0.96,x
CCCCCCCCn1c2c(c(=N)c3c1CCC3)CCCC2,-78,31,4,95,i,0.66,x
C=CCc1cc(/C=C/c2nc(O)c([N+](=O)[O-])c(=O)[nH]2)cc(OC)c1O,x,x,-7,98,i,1,x
COc1ccc2[nH]c(=O)c(CN(C(=O)c3ccco3)C3CCCCC3)cc2c1,-30,94,0,98,i,0.92,0.4
CCn1c(CN2CCN(c3ccc(Cl)cc3)CC2)nc2ccccc21,0,123,-4,98,i,1.1,-1.0
O=C(O)CNC(=S)NCc1ccccc1,-40,104,-6,99,i,0.98,x
CC1=C[C@H]2Cc3cc(C)cc(C)c3S(=O)(=O)[C@@H]2C=C1,22,108,2,97,i,0.96,-1.8
COc1ccc([N+](=O)[O-])cc1N(CC(=O)Nc1ccccc1C(=O)NC(C)C)S(C)(=O)=O,x,x,-2,98,i,0.91,x
COc1ccccc1CCNC(=O)c1nc(-c2cccs2)no1,-35,101,0,98,i,1,x
CC1(C)CC(N2CCN(CCO)CC2)=CC(=S)N1,x,x,x,87,i,1.1,x
Cc1nc(N2CCN(Cc3nc4ccccc4[nH]3)CC2)c2oc3ccccc3c2n1,x,x,-4,100,i,0.96,-3.1
CCOC(=O)C1(CC2CC2)CCN(Cc2cn[nH]c2-c2ccccc2)CC1,x,x,0,101,i,0.92,x
Cc1ccccc1NC(=S)NCCSc1ccc(Cl)cc1,18,70,0,103,i,0.86,x
CCOc1ccc(OCCn2nnc3ccccc3c2=O)cc1,-29,124,6,105,i,0.99,x
CCCNC(=O)c1ccccc1NC(=O)Nc1ccccc1C,-34,180,-8,103,i,0.77,-0.8
CCc1ccc[n+](-c2[nH]c(=O)sc2/C=N/NC([S-])=Nc2ccccc2)c1,x,x,1,97,u,x,-0.1
N#C/C(=C\c1ccc(-c2cccc([N+](=O)[O-])c2)o1)C(=O)Nc1nc(-c2cccs2)cs1,x,x,x,96,i,0.97,x

# Entries from the list above that have fluorine, in the order listed:
SMILES,Insulin prom inh,Insulin prom inh cell count,PKD1 kinase inh,RGS16-Gao HTS,HSV replic up,HSV replic up primary fold,GALR2 ag
COc1cc2c(C(=O)N3CCN(c4ccccc4F)CC3)cn(C)c(=O)c2cc1OC,x,x,-2,104,i,0.92,x
O=C(Nc1ccc(N2CCN(C(=O)c3ccco3)CC2)cc1)c1cccc(F)c1,64,132,-3,94,i,1,-0.9
FC(F)(F)c1cc(-c2cccs2)nc2cc(-c3ccccc3)nn12,x,x,1,118,i,0.75,1.7

# Next structures:
SMILES,Insulin prom inh,Insulin prom inh cell count,PKD1 kinase inh,RGS16-Gao HTS,HSV replic up,HSV replic up primary fold,GALR2 ag
Cc1nc2ccc(S(=O)(=O)Nc3ccc(-c4nc5cccnc5s4)cc3)cc2s1,12,136,-10,101,x,x,3.7
CC(=O)Nc1ccc(NC(=O)C(Cc2ccccc2)NC(=O)C2CCC(C)CC2)cc1 (stereo not given),21,129,18,84,i,0.91,-1.0
O=[N+]([O-])c1cc2oc3c(c2c(C=NCc2ccncc2)c1O)CCCC3,17,87,-5,100,i,1,-1.2
N#Cc1ccc(NC(=S)NCCN2CCOCC2)cc1,x,x,-11,93,i,0.91,x
O=C(Cn1cnc2cc([N+](=O)[O-])ccc2c1=O)Nc1ccccc1-c1ccccc1,x,x,x,99,i,0.86,x
COC(=O)N/N=C/c1cc(Cl)c(OCc2ccc(F)cc2)c(OC)c1,-11,121,2,104,i,0.89,0.7
Cc1ccc(C2=N/C(=C\c3cccnc3)C(=O)O2)cc1,-23,62,-10,99,i,0.87,-1.4
N/C(=N/O)c1nc(N2CCCCC2)nc(N2CCCCC2)n1,-85,125,-3,103,i,0.89,-1.2
O=C(N1CCOCC1)N1CCN(Cc2ccccc2)CC1,x,x,1,100,i,0.66,-1.2
COc1ccc(/C=N/NC(=O)c2c(C)nc3ccc(Br)cn23)cc1OC,x,x,x,100,i,0.64,x
COC(=O)CCC(=O)OC1(C)C(=O)C2=COC(c3ccc(OC)cc3)=CC2=C(Br)C1=O (stereo not given),x,x,x,99,i,0.89,x
Cc1occc1C(=O)NNC(=S)Nc1cccc([N+](=O)[O-])c1,38,122,-13,100,i,0.93,-2.4
O=C(c1c[nH]c2ccccc2c1=O)N1CCCCCC1,x,x,-7,108,i,0.99,x
COc1ccccc1C1C=C(c2ccc(C)cc2)Nc2nnnn21 (stereo not given),38,82,-12,106,x,x,-1.4
c1ccc(-n2ncc3c(NCCN4CCOCC4)ncnc32)cc1,x,x,-10,104,i,1.3,0.7
CN(C)S(=O)(=O)c1ccc(C(=O)Nc2ccccc2SCCC#N)cc1,x,x,-8,94,i,0.77,x
COC(=O)c1ccc(C(=O)OC)c(NC(=O)N2c3ccccc3Sc3ccccc32)c1,x,x,-8,102,i,0.7,-2.7
Cc1ccc(S(=O)(=O)N2CCSC2c2ccco2)cc1 (stereo not given),x,x,0,105,i,0.97,-0.6
CCn1c(SCC(=O)c2c[nH]c3ccccc23)nc2cc(S(=O)(=O)N3CCOCC3)ccc21,59,85,1,131,i,0.98,-0.6
Cc1ccc(C2C(C(=O)c3cccs3)=C(O)C(=O)N2c2cccc(C)n2)cc1 (stereo not given),x,x,x,103,i,0.96,x
CC(=O)Nc1ccc(S(=O)(=O)N2CCN(c3cc4c(cc3[N+](=O)[O-])n(C)c(=O)n4C)CC2)cc1,x,x,11,99,i,1,-1.9
COc1cc(OC)cc(C(=O)NCc2ccc(-n3cccc3)cc2)c1,7,108,-2,115,i,0.94,x
Cc1ccc(NC(=O)C(Cc2ccccc2)N2C(=O)C3C4CCC(C4)C3C2=O)cc1Cl (stereo not given),8,47,9,97,i,0.73,-1.0
Cc1nn(C)c(C)c1NC(=O)CCCSc1nc(-c2ccco2)cc(C(F)(F)F)n1,30,40,-10,64,i,1,-1.2
COc1ccccc1CNC(=O)CN(Cc1ccc(Cl)cc1)S(C)(=O)=O,x,x,-8,97,i,1,x
COC(=O)c1ccccc1NC(=O)COC(C)=O,13,82,-1,100,i,1.1,-5.0
O=C(c1ccccc1)N(Cc1ccc(F)cc1)Cc1nc2ccccc2c(=O)[nH]1,-119,104,2,101,i,1.1,-2.5
